# Vaccinia mCherry – inhibitors of vaccinia virus infection (mCherry reporter signal); AID 720579; Vaccinia virus mCherry reporter infection, fluorescence; about a quarter of the inactives have no number; Potency, µM (highest dose often 36.5 µM), for inactives: at the highest dose activity change, negative = inhibition, most hits filed as inhibitors; actives 0.63% (n = 310,000); active = well fitted inhibition curve with a large enough effect; inconclusive = small, poorly fitted or top-dose-only effect; inactive = no such curve, though single readings can be large or run the other way; tested in A549 cells; also: nearly all actives have a fitted effect of over 35% in size; inactives centre near -10
# VACV Venus inh – vaccinia inhibition (Venus reporter). Vaccinia virus Venus reporter expression, fluorescence. Potency, µM (series often up to 36.5 µM), inactives show top-dose activity change, negative = inhibition, actives largely listed as inhibitors. actives 0.46% (n = 330,000); active means well fitted inhibition curve with a large enough effect; inconclusive means small, poorly fitted or top-dose-only effect; inactive means no such curve, though single readings can be large or run the other way; tested in A549 cells; also: nearly all actives have a fitted effect of over 30% in size; inactives centre near -10
# * = called active by the depositor; i = inactive; ? = inconclusive; · = not tested or not shown; & = joins results of further samples; [ ] = remark or other dose. % is scaled to controls: 0 for no effect and ±100 for the full control effect; potency is read from the fitted curve at half-maximal effect.
# A first look, six compounds:
SMILES,Vaccinia mCherry,VACV Venus inh
CS(=O)(=O)N(CC(=O)NCc1ccncc1)C1CCCCC1,i,-3%
CCOc1ccccc1NS(=O)(=O)c1cc(-c2cnc(C3CC3)o2)ccc1C,-11%,-5%
O=C(CCC(=O)N1CCOCC1)NCCc1ccccc1,-12%,-7%
Cc1cc(O)c(NC(=O)c2cccc([N+](=O)[O-])c2)cc1C,?,-18%
NC(=S)Cc1ccccc1Cl,-4%,1%
CCC(=O)Oc1ccc2c(c1)OC1(OC(C)=O)OC(C)CC1=C2C (stereo not drawn),-2%,-5%

# The whole of this part, from the start:
SMILES,Vaccinia mCherry,VACV Venus inh
CS(=O)(=O)N(CC(=O)NCc1ccncc1)C1CCCCC1,i,-3%
CCOc1ccccc1NS(=O)(=O)c1cc(-c2cnc(C3CC3)o2)ccc1C,-11%,-5%
O=C(CCC(=O)N1CCOCC1)NCCc1ccccc1,-12%,-7%
Cc1cc(O)c(NC(=O)c2cccc([N+](=O)[O-])c2)cc1C,?,-18%
NC(=S)Cc1ccccc1Cl,-4%,1%
CCC(=O)Oc1ccc2c(c1)OC1(OC(C)=O)OC(C)CC1=C2C (stereo not drawn),-2%,-5%
Cc1nc2cc(NC(=O)c3ccc([N+](=O)[O-])s3)ccc2s1,?,-22%
Cc1cccc(NC(=O)CSCC(=O)N(C)Cc2c(F)cccc2Cl)c1,-14%,-6%
O=C(CNC(=O)c1ccccc1)NC1(C(=O)NC2CCCCC2)CCCCC1,-3%,5%
COc1ccc(S(=O)(=O)NCc2ccccn2)c(Cl)c1Cl,·,-24%
CC1CCCCC12NC(=O)N(CC(=O)OCc1c(F)cccc1Cl)C2=O (stereo not drawn),-2%,-22%
O=S(=O)(Nc1ccc(S(=O)(=O)N2CCCCCC2)cc1)c1cccs1,-2%,-11%
Cc1ccn2cc(-c3ccc(C)c(NS(=O)(=O)c4ccc(Cl)cc4)c3)nc2c1,-26%,-14%
CCN(CC)C(=O)c1sc2nc(-c3ccc(OC)cc3)cn2c1C,3%,-8%
COCCNC(=O)Cn1nc(C)c2ccccc2c1=O,-14%,2%
COc1ccc(CCNC(=O)CC2COc3ccccc3O2)cc1OC (stereo not drawn),-13%,-11%
c1ccc(-c2c[nH]c(-c3ccccc3)c2)cc1,-4%,-6%
Cc1oc2c(C)c3oc(=O)c(CC(=O)N[C@@H](CC(C)C)C(=O)N[C@@H](Cc4ccccc4)C(=O)O)c(C)c3cc2c1C,7%,-10%
C[C@@H]1CN([C@@H](C)CO)C(=O)CCCn2nncc2CO[C@@H]1CN(C)C(=O)Nc1cccc2ccccc12,-16%,-11%
O=C(N/N=C/c1ccco1)c1cc(-c2cccc(Br)c2)nc2ccccc12,?,-15%

# Next section, starting with the last five of the part before.
SMILES,Vaccinia mCherry,VACV Venus inh
COc1ccc(CCNC(=O)CC2COc3ccccc3O2)cc1OC (stereo not drawn),-13%,-11%
c1ccc(-c2c[nH]c(-c3ccccc3)c2)cc1,-4%,-6%
Cc1oc2c(C)c3oc(=O)c(CC(=O)N[C@@H](CC(C)C)C(=O)N[C@@H](Cc4ccccc4)C(=O)O)c(C)c3cc2c1C,7%,-10%
C[C@@H]1CN([C@@H](C)CO)C(=O)CCCn2nncc2CO[C@@H]1CN(C)C(=O)Nc1cccc2ccccc12,-16%,-11%
O=C(N/N=C/c1ccco1)c1cc(-c2cccc(Br)c2)nc2ccccc12,?,-15%
COc1ccc(Cn2cc(CN3CCc4onc(-c5ccc(Br)cc5)c4C3=O)nn2)cc1,-39%,-23%
CCOC(=O)c1c(C)[nH]c2cc(Br)c(OC)cc12,·,-18%
Nc1nnn(CC(=O)N/N=C/c2ccccc2Cl)n1,-14%[7.34 µM],5%[7.34 µM]
CC12CCC(C(=O)NNC(=O)c3ccc(F)cc3)(OC1=O)C2(C)C (stereo not drawn),-11%,-13%
Cc1cccc(N2C(=O)c3cccc4c(N5CCCCC5)c([N+](=O)[O-])cc(c34)C2=O)c1C,-7%,-7%
COc1ccc(/C=C(\C#N)C(=O)OCC(=O)Nc2c(C)cccc2C)cc1,i,-13%
O=C(Nc1ccccc1N1CCCCC1)c1cc(S(=O)(=O)N2CCOCC2)ccc1Cl,i,-16%
CCn1c(=O)[nH]c(=O)c2c(N)c(C(=O)c3cc(F)ccc3F)sc21,?,?
CCN(CC)C(=O)C1=C(C)N(Cc2ccc(OC)cc2)C(=O)C(CC(=O)NCCCN(C)C)C1 (stereo not drawn),-12%,-3%
Cn1nnnc1SCCNCc1ccccc1OCc1ccc(Cl)cc1Cl,i[7.34 µM],-16%[7.34 µM]
COc1ccc(C(=O)c2ccccc2Cl)cc1OC,i,-11%
CCSc1nnc(-c2ccccc2NC(=O)CC)c(=O)[nH]1,-8%,4%
COc1cc2nc(CN3CCN(S(=O)(=O)c4ccccc4[N+](=O)[O-])CC3)[nH]c(=O)c2cc1OC,-21%,?
Cc1ccc(S(=O)(=O)N2CCN(C(=O)c3ccc([N+](=O)[O-])cc3)C2)cc1,0%,-7%
COc1ccc(NC(=O)C(=O)NCC(=O)Nc2cccc(C(F)(F)F)c2)cc1,2%,4%
Cc1cc2c(cc1C)N(C(=O)CSc1nncn1C)C(C)(C)c1ssc(=S)c1-2,i,-16%
Nc1nc(NCc2ccco2)nc(N2CCCC2)c1[N+](=O)[O-],-26%,-14%
CCC(C)(O)c1[nH]c2ccc(C(=O)OC)cc2c1C (stereo not drawn),i,-27%
O=C(NC1CCCN(c2ccc(C(F)(F)F)cn2)C1)c1ccnc(Cl)c1 (stereo not drawn),-6%,-23%
Cc1ccc(S(=O)(=O)NCC(=O)N(CC2CCCO2)C(C(=O)NC2CCCCC2)C(C)C)cc1 (stereo not drawn),?,-3%
CC(c1ccc2ccccc2c1)c1ccccc1C(=O)O (stereo not drawn),i,5%
CCCNC(=O)CCn1c(-c2ccc(C)cc2)cc(C(=O)OCC)c1C,i,-7%
Cc1ccc(OCC(=O)N/N=C\c2ccco2)c(C)c1,-16%,-6%
CC(C)CC(=O)N1CCN(CC2CC=CCC2)CC1 (stereo not drawn),·,-28%
CN(C(=O)CSc1nc(O)cc(=O)n1C1CCCC1)c1ccccc1,-1%,1%
O=C(CSc1nc(-c2ccc(F)cc2)[nH]c1-c1ccc(F)cc1)Nc1ccc2c(c1)OCCO2,?,?
Cc1ccc(C(C)NC(=O)c2cccnc2)cc1 (stereo not drawn),-11%,-8%
CCOc1cc(CN2CCN(S(=O)(=O)c3ccc(C)cc3)CC2)ccc1OC,-4%[7.34 µM],-5%[7.34 µM]
COc1ccc(NC(=O)c2c(NC(=O)COc3ccccc3)sc3c2CCC(C(C)(C)C)C3)cc1 (stereo not drawn),?,?
CCOc1ccc(NC(=O)N2CCC(n3nnc4ccccc43)CC2)cc1,i,-12%
CCNC(=O)C1OC(n2cnc3c(N)ncnc32)C(O)C1O (stereo not drawn),·,-5%
Cc1cc(S(=O)(=O)N2CCc3ccccc3C2)ccc1F,i,-13%
COc1cc(CC(NC(C)=O)C(=O)NC2CCN(C(=O)C3CC3)CC2)cc(OC)c1 (stereo not drawn),i,-4%
CCOC(=O)c1sc(NC(=O)Cc2c(F)cccc2Cl)nc1C,i,-16%
CC(C)[C@H]1CN=C2N(C[C@H](C)NC(=O)CCC3CCCCC3)[C@H](Cc3ccc(O)cc3)CN21,-29%,-6%
CC1CC1C(=O)OCC(=O)NNC(=O)c1ccc([N+](=O)[O-])cc1 (stereo not drawn),-11%,-9%
CCCCNC(=O)c1cc(C)nn1-c1ccccc1,-13%,13%
CCOP(=O)(OCC)C(Nc1ccc([N+](=O)[O-])cc1)c1ccc(Cl)cc1 (stereo not drawn),i,-3%
Cc1nn(-c2ccccc2)c(Cl)c1/C=N/NC(=O)OC(C)(C)C,-7%,-17%
CC1CN(C(=O)c2cccs2)CC(C)O1 (stereo not drawn),-25%,-6%
COc1ccc(OCC(=O)Nc2ccc(S(=O)(=O)Nc3cc(C)nc(C)n3)cc2)cc1,·,8%
O=C(NCCCCc1ccccc1)c1ccc(Br)o1,-16%,-3%
O=C(NC1=C(Nc2ccc(F)cc2)C(=O)c2ccccc2C1=O)c1ccc(Cl)cc1,?,?
O=[N+]([O-])c1nc2ccccc2[nH]1,i,1%
Cc1ccc(C)c2[nH]c(=O)c(CCNC(=O)Cc3cccs3)cc12,i,-12%
COC(=O)c1ccc(NC(=O)CSc2nncn2C)cc1,-14%[1.46 µM],-8%
Cc1nnc2c(-c3ccccc3)nc3ccccc3n12,·,19%
COc1ccc(C(=O)Nc2ccc(NS(=O)(=O)c3ccccc3)cc2)cc1OC,-22%,-6%
CCCOC(=O)C1NC(=O)N2C(C(=O)OCCC)C(C)(C)S[C@H]12 (stereo partly drawn),-15%,-14%&-14%
COc1cc2c(c(OC)c1OC)-c1ccc(O)cc1[C@@H](NC(C)=O)CC2,-12%,?
CC(=O)Nc1ccc(CNc2nc(NC(C)C)nc3ccsc23)cc1,?,-17%
COc1ccccc1C1CN(Cc2cn(C)nc2C)Cc2ccccc2O1 (stereo not drawn),-10%,-2%
CC(C#N)OC(=O)c1cccnc1SCC(=O)Nc1ccc2c(c1)OCO2 (stereo not drawn),-9%,2%
CCOc1ccc(Nc2nc(Cc3nnc(SCC(N)=O)o3)cs2)cc1,-13%,-3%
O=C1Nc2ccccc2/C1=N/c1sc2c(c1C(=O)NCCc1ccccc1)CCCC2,i,-10%
COc1cccc(-c2cc(NC(C)=O)c3ncc(-c4ccc(OC)c(OC)c4)n3c2)c1,-24%,-16%
CCc1nc2c(OCc3cc(Cl)cc(Cl)c3)cccn2c1N(C)C(=O)c1ccc(OC)cc1,-7%,-7%
CC1CCCC(NC(=O)C2CCN(C(=O)Nc3ccccc3)CC2)C1C (stereo not drawn),i,-4%
CC1=C(C(=O)N2CCOCC2)CC(CC(=O)NCc2ccco2)C(=O)N1CCC1=CCCCC1 (stereo not drawn),-9%,-15%
Cc1cccc(S(=O)Cc2ccc(C(=O)N3CCOCC3)o2)c1 (stereo not drawn),-14%[7.34 µM],-7%[7.34 µM]
# (next part)
SMILES,Vaccinia mCherry,VACV Venus inh
O=C1NC[C@H](c2ccccc2)OC(=O)[C@H](Cc2ccc(F)cc2)C/C=C\C[C@@H]1CC(=O)N(CCO)Cc1ccccc1,i,?
CCN1CCCC(CO)(Cc2ccccc2)C1 (stereo not drawn),-7%,1%
C/C(=N\NC(=O)c1ccc2c(c1)OCO2)c1ccc(C(=O)O)s1,-24%,-12%
O=C(CCCCC(=O)NN=Cc1ccc2c(c1)CCC2)NN=Cc1ccc2c(c1)CCC2,-24%,-13%
COc1ccccc1NC(=O)C(C)OC(=O)CCC1CCCCC1 (stereo not drawn),-14%,-10%
COc1ccc(OC)c(NC(=O)CCc2c(C)nc3c(-c4ccccc4)c(C)nn3c2C)c1,-25%,-17%
Cc1ccc(S(=O)(=O)NCCNC(C)c2ccc(Br)cc2)cc1 (stereo not drawn),-19%,-17%
CN1CCN(Cc2ccc(OC(F)(F)F)cc2)CC1,·,-1%
Cc1c(Nc2ncnc3nc[nH]c23)c(=O)n(-c2ccccc2)n1C,-17%,-11%
COc1cc(C(C)=O)ccc1OCC(O)CN1CCN(S(=O)(=O)c2ccccc2)CC1 (stereo not drawn),·,-21%
COc1ccc(NC(=O)CN2C(=O)NC(c3ccccc3)(c3ccccc3)C2=O)cc1,-4%,-9%
CC(=O)c1ccc(NC(=O)C(Cc2ccccc2)NC(=O)c2ccco2)cc1 (stereo not drawn),-14%,-6%
CN(C(=O)c1cccc(C#N)c1)c1nnc(C2CCOC2)s1 (stereo not drawn),-18%,-10%
CCCn1nnc(NC(=O)c2ccccc2Br)n1,-15%,-12%
CCOC(=O)c1ccc2nc(Nc3nc4ccc(F)cc4s3)sc2c1,-3%,-9%
O=C(COc1cccc2ccccc12)N/N=C/c1ccco1,-20%,-7%
Cc1ccc(-c2nc3ccc(Br)cn3c2Cc2cccc(F)c2)cc1,12%,-5%
O=C(O)c1ccccc1NS(=O)(=O)c1ccccc1C(F)(F)F,-7%,0%
CC(=O)c1cccc(-c2cnc3c(NC=O)cc(-c4ccc(N(C)C)cc4)cn23)c1,-18%,20%
NC(=O)c1ccc[n+](CC(=O)c2ccc(NC(=O)c3ccccc3)cc2)c1,-14%,-3%
CC(C)(C)C(=O)Nc1ccc2oc(-c3cc(F)c(F)cc3Cl)nc2c1,·,?
C/C=C/c1ccc(OCC(=O)OCC)c(OC)c1,-3%,-18%
O=S(=O)(NCc1ccccc1Cl)c1ccc(N2CCCCS2(=O)=O)cc1,-20%,-10%
Clc1ccc(Oc2cccc(/C=N/n3cnnc3)c2)cc1,·,?
COc1ccc(CCN2CC(C(=O)NCc3c(C)n[nH]c3C)CCC2=O)cc1 (stereo not drawn),-19%,-18%
O=C(Cc1ccc(Cl)cc1)NCC(c1cccs1)S(=O)(=O)c1ccc(F)cc1 (stereo not drawn),?,-28%
CCCc1cc(=O)[nH]c(SCC(=O)c2cc(C)n(C3CC3)c2C)n1,·,3%
C=CCOC(=O)/C(=C/c1ccco1)NC(=O)/C=C/c1ccccc1,-11%,-6%
CCc1cccc(C)c1NC(=O)CNCc1ccccc1,-18%,-8%
O=c1[nH]c(/C(Cl)=C/c2c(F)cccc2Cl)nc2cc(Cl)ccc12,-13%,-1%
O=C(CCCc1nc2ccccc2s1)NC(c1ccccc1)c1ccccc1,i,-3%
Cc1ccc2nc(/C(C#N)=C\c3ccc([N+](=O)[O-])o3)[nH]c2c1,i,-11%
COc1ccccc1/C=C/C(=O)NC(=S)N(C)C1CCCCC1,-2%,-10%
COc1ccc(NC2=NC(C)(CO)CS2)cc1 (stereo not drawn),i,-12%

# The order is random (roughly 0.87% active in at least one column).
